GIV-Gai inh – inhibitors of GIV GBA-motif binding to rat Galpha-i3. P08753. Galpha-i3/FITC-GIV peptide fluorescence polarization, 90 min; hits give low values; scaled: aluminum fluoride 0%, vehicle 100%. percent of control (FP), % (no concentration beside the values). 210,000 compounds, 0.42% hits. AID 1224905;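 active = replicate mean at 85% of control or lower, very high polarization wells dropped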;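 note: wells of about 15 µL received 100 nL stock; the first replicate is given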
Target sequence (P08753 whole entry, looked up): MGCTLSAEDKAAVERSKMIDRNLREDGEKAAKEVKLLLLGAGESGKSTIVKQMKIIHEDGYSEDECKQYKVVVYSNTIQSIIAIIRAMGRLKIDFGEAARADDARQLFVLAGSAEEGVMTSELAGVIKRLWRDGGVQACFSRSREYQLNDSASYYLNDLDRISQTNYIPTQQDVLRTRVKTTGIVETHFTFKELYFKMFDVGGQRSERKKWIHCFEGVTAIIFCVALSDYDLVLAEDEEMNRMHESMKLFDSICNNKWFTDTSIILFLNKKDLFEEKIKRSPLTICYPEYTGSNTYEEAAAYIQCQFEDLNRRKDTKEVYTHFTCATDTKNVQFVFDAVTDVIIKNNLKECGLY
Sa growth 42C – blocks Staphylococcus aureus growth; S. aureus RN4220 growth, OD600, 20 h, 42 °C; hits give low values; relative growth, % (concentration not given with the values); 170,000 compounds, 0.53% hits;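 active = growth at 42 °C up to 50% and 20 or more points under that at 30 °C, or under 10% at both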;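 note: 300 nL library stock went into each well; scaled to the means of positive and negative controls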
HCMV UL50-53 inh – disrupts HCMV UL50-UL53 complex binding; HTRF UL50-UL53 interaction, normalized percent inhibition; AID 1918969; inhibition, % (concentration not given with the values); 190,000 compounds, 0.15% hits;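 active = both replicates at 50% or more, plus weaker picks with an unusually low signal ratio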;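 note: stock transfer was 100 nL into about 20 µL; 0% = negative control wells and 100% = wells with untagged competitor protein; inactives centre near -12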
Sa growth 42C second temp – further read-out of Sa growth 42C, marked with its call; relative growth, %; measured here: growth at 30 °C;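 optical density after 20 h as mean of two plates; 100% = untreated growth and lower means inhibition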
Active calls of the source: *; · = not tested or not shown; & = joins results of further samples.

| item | smiles | HCMV UL50-53 inh | Sa growth 42C | GIV-Gai inh | Sa growth 42C second temp |
| --- | --- | --- | --- | --- | --- |
| 1 | CCCC12CN3CC(C)(CN(C1)C3c1cn(C)c3ccccc13)C2=O (stereo not given) | 0 | 82 | 103 | 93 |
| 2 | CCOC(=O)C1CCN(Cc2csc(-c3cccs3)n2)CC1 | -42 | 74 | 104 | 84 |
| 3 | COc1ccc(C(=O)c2cc3c(CO)cnc(C)c3oc2=O)cc1 | -115 | 97 | 101 | 77 |
| 4 | O=C(NC1CC1)C1CCCN(C(=O)c2cc(-c3cccnc3)n[nH]2)C1 (stereo not given) | -25 | · | 98 | · |
| 5 | CCOC(=O)C1=C(C)N(CCOC)C(=O)/C1=C\c1ccc(N(C)C)cc1 | -81 | 89 | 64* | 86 |
| 6 | Cc1ccc2[nH]c(CSc3nnc(NC(=O)c4ccccc4F)s3)cc(=O)c2c1 | · | 96 | 103 | 85 |
| 7 | O=C(Nc1ccccc1)c1ccc(C#Cc2ccccc2)o1 | -10 | 96 | 102 | 93 |
| 8 | COc1ccc(C2CC(=O)c3c([nH]c(C(=O)OC4CCCCCC4)c3C)C2)cc1 (stereo not given) | -3 | 111 | 104 | 87 |
| 9 | O=C(CSc1nc2c([nH]c3ccccc32)c(=O)n1-c1cccc(Cl)c1)N1CCCCCC1 | · | 105 | 101 | 87 |
| 10 | O=C(Nc1ccc2ccc(=O)oc2c1)C1=Cc2cc(Br)ccc2OC=C1 | 2 | · | 103 | · |
| 11 | CCCCn1c(N)c(N(CC(C)C)C(=O)COc2ccc(F)cc2)c(=O)[nH]c1=O | -10 | 76 | · | 95 |
| 12 | Cc1[nH]c(=O)c(C#N)c(C)c1CCC(=O)NC1(C)CCS(=O)(=O)C1 (stereo not given) | -16 | 107 | · | 90 |
| 13 | CCCCC1SC(/N=C/c2ccc(Cl)cc2)=NNC1=O (stereo not given) | -18 | 106 | · | 76 |
| 14 | COc1ccc(Cl)cc1NS(=O)(=O)c1c(C)[nH]c(=O)[nH]c1=O | -3 | 135 | 102 | 94 |
| 15 | O=C(c1cc(-c2ccc(F)cc2)no1)N1CCCC1c1ccc(F)cc1 (stereo not given) | 14 | · | 107 | · |
| 16 | CC(C)Cn1cc(NC(=O)Nc2cccc(C(F)(F)F)c2)c2ccccc2c1=O | · | 97 | 101 | 90 |
| 17 | CC1=C(c2ccccc2)[N+](=O)C(C)(C)N1[O-] | -4 | 91 | 98 | 91 |
| 18 | Cc1sc(C)c(S(=O)(=O)N2CC=C(c3ccccc3)CC2)c1-c1ccno1 | -26 | · | 106 | · |
| 19 | O=C(Nc1cccc(O)c1)c1cccc(-n2cnnc2)c1 | -16 | 103 | 105 | 98 |
| 20 | CC(C(=O)N/C(N)=N/c1nc2ccccc2s1)N1C(=O)c2ccccc2C1=O (stereo not given) | 4 | 101 | · | 93 |
| 21 | Cc1cc(C)c2c(-n3cccc3)nn(CCCC(=O)Nc3cc(Cl)ccc3C)c2n1 | -1 | · | 107 | · |
| 22 | Cc1oc(-c2ccc(C(=O)NCc3ccccn3)cc2)nc1Cn1cccn1 | -15 | 101 | 98 | 88 |
| 23 | CC(C)c1ccc(S(=O)(=O)c2nnn3c2nc(NCc2cccs2)c2sccc23)cc1 | · | 108 | 106 | 86 |
| 24 | Cc1cc(C)c(C)c(S(=O)(=O)N2CCSCC2)c1C | -36 | 95 | 105 | 96 |
| 25 | O=c1cc(N2CCN(S(=O)(=O)Cc3ccccc3)CC2)nc2sc(-c3ccccc3)nn12 | 21 | · | 104 | · |
| 26 | Cc1nc2ccccc2c(=O)n1/N=C/c1ccc2c(c1)OCO2 | -20 | 96 | · | 91 |
| 27 | COc1ccccc1CNC(=O)CCCn1c(=O)c2ccccc2n(Cc2ccc(F)cc2)c1=O | -1 | 99 | 105 | 101 |
| 28 | CCCOc1ccccc1N | -35 | 95 | 103 | 85 |
| 29 | Cc1c(C(=O)Nc2ccccc2)sc2ncn(CC(=O)N3CCOCC3)c(=O)c12 | -14 | 101 | 112 | 84 |
| 30 | O=C(Cc1ccc(NC2=NC3CS(=O)(=O)CC3S2)cc1)NCCC1=CCCCC1 (stereo not given) | -25 | · | 102 | · |
| 31 | Cc1nn(CC(O)c2ccccc2)c(C)c1Br (stereo not given) | · | 102 | 103 | 76 |
| 32 | Cn1c(=O)c2sccc2n2c(CCC(=O)NCc3ccccc3)nnc12 | 14 | 99 | 101 | 108 |
| 33 | CCC(=O)Nc1cc(C(=O)OCC(=O)c2cccs2)ccc1C | -15 | 91 | · | 86 |
| 34 | CC1CCC(=O)C(C(CC(=O)c2ccccc2)c2ccc3c(c2)OCO3)C1 (stereo not given) | -26 | 99 | 103 | 84 |
| 35 | O=C(NCc1ccccc1)C1C2CC3OC(=O)C1C3C2 (stereo not given) | -34 | 100 | 103 | 80 |
| 36 | c1ccc(-c2nc(-c3ccco3)cs2)nc1 | 7 | 108 | · | 97 |
| 37 | O=c1[nH]c(O)c(C=NCCCn2ccnc2)c(=O)[nH]1 | 17 | 90 | 92 | 106 |
| 38 | Cc1cccc(NC(=O)CCn2nc(C)c3c(C)n(-c4ccccc4)nc3c2=O)c1C | · | 76 | 101 | 94 |
| 39 | CN(C)S(=O)(=O)c1ccc(NC(=O)CSc2ncccn2)cc1 | 1 | 84 | · | 96 |
| 40 | OC(COc1ccc(Br)cc1)CN1CCCN(c2nc3ccc(Cl)cc3s2)CC1 (stereo not given) | -6 | 94 | 108 | 15 |
| 41 | COC(=O)c1ccc(CSc2nc(N3CCOCC3)c3c(c2C#N)CC(C)(C)OC3)o1 | 1 | · | 113 | · |
| 42 | Cc1cccc(N(C)S(=O)(=O)c2ccc3c(c2)OCC(=O)N3)c1 | · | 92 | 95 | 78 |
| 43 | CCN(CC)c1ccc(C(=O)OCC(=O)N2CCc3ccccc32)cc1 | -16 | 115 | · | 85 |
| 44 | O=C1CSC(=NCc2ccccc2)N1 | 9 | 84 | · | 90 |
| 45 | CCc1nn2c(=O)cc(COC(=O)c3cccc(NC(=O)c4ccccc4Cl)c3)nc2s1 | · | 88 | 100 | 87 |
| 46 | COC(=O)C1=C(C(=O)OC)SC(=C2C(=S)C(C)(C)N(C(=O)CN3C(=O)C4CCCCC4C3=O)c3ccccc32)S1 (stereo not given) | -15 | · | 105 | · |
| 47 | Cc1cccc(NC(=O)c2ccc(=O)[nH]c2)c1 | -34 | 107 | · | 83 |
| 48 | NC1=NC(=O)C(CC(=O)Nc2ccccc2)S1 (stereo not given) | · | 95 | 101 | 101 |
| 49 | CCN(c1ccccc1)c1nnc(NC(=O)Nc2ccc(Br)cc2F)s1 | -3 | 104 | 102 | 86 |
| 50 | Clc1ccc(Cn2cccc2C2=NCCO2)cc1 | -3 | 111 | 95 | 89 |
| 51 | CC1CCC(C(C)C)C(OCC[N+](C)(C)C)C1 (stereo not given) | · | 91 | 101 | 94 |
| 52 | COc1ccc(CN(C)Cn2c(=S)oc3ccccc32)cc1 | -12 | 92 | · | 99 |
| 53 | O=C(O)/C=N/NC(=O)c1ccccc1 | -17 | 98 | 105 | 92 |
| 54 | CCC(=O)Nc1ccccc1SCc1cc(=O)n2cc(Cl)ccc2n1 | -67 | · | 107 | · |
| 55 | CN(C)N=Nc1ccc(S(=O)(=O)NC(=O)Cc2ccccc2)cc1 | -5 | 100 | · | 102 |
| 56 | CCOC(=O)CSCc1cn2c(C)cc(C)nc2n1 | 17 | 96 | · | 97 |
| 57 | CC1CCCN(C(=S)NC(=O)C2CC2)C1 (stereo not given) | -12 | 83 | · | 78 |
| 58 | O=C(c1ccc(S(=O)(=O)c2ccccc2)nc1)N1CCN(C2CCCCC2)CC1 | -19 | · | 101 | · |
| 59 | CCN(CC)CCCNc1nc(Cl)nc(Nc2ccc(F)cc2F)n1 | -1 | 98 | · | 98 |
| 60 | O=C(CCNC(=O)c1ccc(Br)cc1)Nc1nc2ccccc2[nH]1 | -8 | 89 | · | 97 |

(cont.)
| item | smiles | HCMV UL50-53 inh | Sa growth 42C | GIV-Gai inh | Sa growth 42C second temp |
| --- | --- | --- | --- | --- | --- |
| 61 | Cc1nc(-c2ccc(N3CCN(C(=O)NC4CCCCC4)CC3)cc2)no1 | -28 | · | 107 | · |
| 62 | Nc1nn(-c2ccccc2)nc1C(=O)OCc1ccccc1 | -2 | 85 | 111 | 85 |
| 63 | Cc1ccc(Nc2nc3nonc3nc2Nc2c(C)n(C)n(-c3ccccc3)c2=O)c(C)c1 | -15 | · | 101 | · |
| 64 | CC(C)n1c(=S)[nH]c2scc(-c3cccs3)c2c1=O | -34 | 3.9* | · | 2.1* |
| 65 | COc1ccc2c(c1)NC(c1cccnc1)=NC(c1ccc(F)cc1)=N2 | -49 | 113 | 97 | 89 |
| 66 | COc1cn(CC(=O)Nc2cccc(C)c2C)c(CN2CCCCC2)cc1=O | · | 134 | 108 | 93 |
| 67 | C/S(=N\C(=O)Nc1ccc(Cl)cc1)c1sc(Cl)c2c1C(=O)CCC2 (stereo not given) | -47 | 78 | 103 | 87 |
| 68 | O=C1NC(=Nc2ccccc2Br)SC1(CO)CO | 4 | 95 | 98 | 105 |
| 69 | Nc1ccc(-c2nnn(CC(=O)N3CCCC3)n2)cc1 | -24 | 86 | 100 | 82 |
| 70 | CCOC(=O)C(C)NC(=O)c1c(C)oc2ncn(CC(C)C)c(=O)c12 (stereo not given) | · | 74 | 104 | 88 |
| 71 | O=C(Cn1nnc(-c2ccc3c(c2)OCO3)n1)N1CCOCC1 | -1 | 108 | · | 95 |
| 72 | O=S(=O)(c1ccccc1)n1ccc(-c2ccc(C#Cc3ccccc3)cc2)n1 | -30 | 100 | 103 | 88 |
| 73 | O=C(COn1nnc2ccccc21)N1CCC(Cc2ccccc2)CC1 | 12 | 145 | · | 96 |
| 74 | COc1cc(C(=O)Nc2ccc3nn(-c4ccc(F)cc4)nc3c2)cc(OC)c1OC | -26 | 91 | 106 | 91 |
| 75 | CC(=O)OC(C)C[N+](C)(C)C (stereo not given) | -21&-14&-23 | 92 | 104 | 93 |
| 76 | O=C(O)C1CCC(Cn2c(SCc3ccccc3Cl)nc3ccsc3c2=O)CC1 (stereo not given) | · | 87 | 106 | 80 |
| 77 | Cc1nn2c(NCCN3CCOCC3)cc(C(C)(C)C)nc2c1-c1ccc(F)cc1 | -21 | · | 101 | · |
| 78 | CCCCn1c(CCCNC(=O)c2cccc(C)c2)nc2ccccc21 | -3 | 108 | 105 | 87 |
| 79 | CCOC(=O)c1cccc(NC(=O)c2cc(-c3ccc(Cl)s3)nc3ccccc23)c1 | 16 | 92 | 108 | 87 |
| 80 | O=C(Nc1ccccc1N1CCCC1)c1ccccc1 | -8 | 112 | 105 | 98 |
| 81 | CCOC(=O)C1=C(CN2CCn3cccc3C2C)NC(=O)NC1c1ccc(Cl)cc1 (stereo not given) | 13&-12 | 109 | 127&107 | 85 |
| 82 | COC(=O)Cn1cc(/C=C(/C#N)C(=O)NCc2ccccc2)c2ccccc21 | -18 | 107 | 109 | 104 |
| 83 | CC(=O)Nc1ccc(S(=O)(=O)NCC2CCC(C(=O)N3CCOCC3)CC2)cc1 (stereo not given) | -4 | 100 | · | 91 |
| 84 | C(=N/n1cnc2ccccc21)/c1ccccc1 | -18 | 157 | 103 | 72 |
| 85 | CC(C)(C)c1ccc(OCCCC(=O)N2CCOCC2)cc1 | -7 | 96 | 100 | 80 |
| 86 | Cc1nc2ccccc2nc1SCC(=O)NC1CCCCC1 | -40 | 104 | · | 89 |
| 87 | Brc1ccc2c(c1)NC(c1cccnc1)=NC(c1ccccc1)=N2 | -2 | 106 | 100 | 96 |
| 88 | Cc1ccccc1Nc1nc(N)nc(COc2ccc(F)cc2C(=O)c2cc(C#N)c(=O)n(C(C)C)c2)n1 | -26 | 93 | · | 81 |

Screening data (PubChem BioAssay)
